Rango-impB inh: qHTS Assay for Inhibitors of Rango (Ran-regulated importin-beta cargo) - Importin beta complex formation. Importin subunit beta-1 (Homo sapiens), Q14974. Potency, µM (series often up to 92.2 µM), without a hit: at the top dose inhibition of complex formation. Rango CFP/YFP FRET sensor + importin beta, 45 min. AID 540263, 2011. 340,000 compounds, 0.031% hits; active = rising FRET ratio curve, often small or poorly fitted; inconclusive = mostly compound fluorescence or quenching in the first reads; inactive = flat curves in all reads;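 further: potency means the concentration at half of the fitted maximal effect; 0% = DMSO wells and 100% = buffer wells lacking importin beta; nearly all actives have a fitted effect of over 15% in size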
Target sequence (Q14974 whole entry, looked up): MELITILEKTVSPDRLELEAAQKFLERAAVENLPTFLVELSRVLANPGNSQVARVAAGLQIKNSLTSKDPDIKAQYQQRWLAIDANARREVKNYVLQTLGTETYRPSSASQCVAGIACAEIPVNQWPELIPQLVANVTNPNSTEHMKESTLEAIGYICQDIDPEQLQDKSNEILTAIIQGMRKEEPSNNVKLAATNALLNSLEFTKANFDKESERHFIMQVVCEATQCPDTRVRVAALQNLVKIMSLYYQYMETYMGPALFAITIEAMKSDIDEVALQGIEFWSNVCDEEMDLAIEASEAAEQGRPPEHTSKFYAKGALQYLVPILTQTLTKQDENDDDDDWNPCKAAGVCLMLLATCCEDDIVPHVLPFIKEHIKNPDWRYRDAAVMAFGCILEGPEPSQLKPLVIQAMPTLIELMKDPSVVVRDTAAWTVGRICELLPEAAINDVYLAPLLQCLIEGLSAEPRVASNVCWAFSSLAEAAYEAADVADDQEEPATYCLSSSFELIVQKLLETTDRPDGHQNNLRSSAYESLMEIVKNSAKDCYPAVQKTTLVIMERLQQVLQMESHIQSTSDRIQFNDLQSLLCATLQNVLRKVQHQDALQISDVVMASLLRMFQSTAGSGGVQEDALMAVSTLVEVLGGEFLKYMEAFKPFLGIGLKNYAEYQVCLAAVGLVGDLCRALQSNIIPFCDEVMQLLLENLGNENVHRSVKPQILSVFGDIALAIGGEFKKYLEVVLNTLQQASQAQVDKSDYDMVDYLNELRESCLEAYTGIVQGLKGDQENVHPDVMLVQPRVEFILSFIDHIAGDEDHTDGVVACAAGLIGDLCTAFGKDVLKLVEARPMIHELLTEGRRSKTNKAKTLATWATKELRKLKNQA
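Inhibition scored from the CFP 486 nm/YFP 530 nm FRET ratio 45 min after adding 0.125 microM importin beta to 50 nM Rango biosensor preincubated 5 min with compound (room temperature, PBS with DTT, Tween-20, BSA). No-importin wells as positive control.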
GLA inh pH 4.5: qHTS Assay for Inhibitors of Human alpha-Galactosidase at pH 4.5. activity change, negative = inhibition, % at 105 µM. Alpha-galactosidase A (Homo sapiens), P06280. purified enzyme, 4-MU-alpha-Gal fluorescence, pH 4.5. AID 1467, 2008. 230,000 tested, under 10 active; inconclusive = small, poorly fitted or top-dose-only inhibition, or a rising curve; inactive = flat fitted curve, though single readings scatter; no compound was filed as active;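 further: 0% = full activity with enzyme and -100% = basal without enzyme; dose as in the result columns while the protocol names 77 µM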
miR-21 reporter: qHTS Assay for Modulators of miRNAs and/orActivators of miR-21. HeLa miR-21 FLuc reporter, luciferase, 48 h. Potency, µM (top dose mostly 38.3 µM), inactives show at the top dose reporter change, positive = more light. 340,000 tested, under 10 active. AID 2288, 2010; active = well fitted rising curve with a large enough effect; inconclusive = small, poorly fitted or top-dose-only effect; inactive = no such curve, though single readings can be large or run the other way;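 further: % of control where 0% means no effect; miR-21 action dims this reporter so a rising signal means less miR-21 action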
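HeLa miR-21-FLuc reporter line, endogenous miR-21; 2000 cells/well in DMEM/10% FBS; compound titration up to ~40uM final, 48 h, 37 degree Celsius; luciferase detection reagent, 15 min lysis, CCD luminescence.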
Rango dissoc inh: qHTS Assay for Inhibitors of RanGTP induced Rango (Ran-regulated importin-beta cargo) - Importin beta complex dissociation; Snurportin-1 (Homo sapiens) + GTP-binding nuclear protein Ran (Homo sapiens) + Importin …; Biochemical FRET Rango-importin beta, RanGTP-induced dissociation; Potency, µM (highest dose often 46.1 µM), for inactives: top-dose activity change, negative = inhibition; 340,000 compounds, 0.071% hits; active means falling FRET ratio curve, often poorly fitted, with flat reads before Ran was added; inconclusive means other falling curves, or compound fluorescence or quenching; inactive means flat or rising ratio curve;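 further: potency means the concentration at half of the fitted maximal effect; % of control where 0% means no effect; nearly all actives have a fitted effect of over 45% in size; -100% = wells without RanGTP and RCC1; the record marks most hits as doubtful in a second field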
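Recombinant Rango FRET biosensor (EYFP–snurportin 1 IBB–cerulean CFP10) at 0.1 uM premixed with 0.25 uM importin beta in PBS, 1 mM DTT, 0.02% Tween-20, 0.1% BSA. Compound added 5 min; RanGTP-RCC1 (0.6 uM Ran, 2 mM GTP, 0.2 uM RCC1) then triggers release, read at 45 min.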
* hit, by the source's call; ? = inconclusive; . = not tested or not shown.

SMILES	Rango-impB inh	GLA inh pH 4.5	miR-21 reporter	Rango dissoc inh
COc1cccc(C(=O)NCC(=O)N/N=C/c2cccc(OC(=O)c3ccc([N+](=O)[O-])cc3)c2)c1	1.0%	?	-3%	11%
CN1CCN(NS(=O)(=O)c2ccc(Cl)s2)CC1	1.1%	2	-4%	-13%
O=C(NCc1cccnc1)c1ccc(COc2ccccc2Br)cc1	3.3%	0	-2%	9%
O=C1CC(C(=O)Nc2ccc(O)c(C(=O)O)c2)C(c2ccccc2)O1 (stereo unspecified)	-1.4%	-12	-5%	-2%
N#CCSc1ccccc1NC(=O)COC(=O)CCNC(=O)c1ccc([N+](=O)[O-])cc1	0.2%	.	.	16%
C=CCOC(=O)Cn1cnc2c(sc3nc(C)cc(C)c32)c1=O	0.7%	.	-44%	-6%
Cn1c(=O)c2sccc2n2c(CCCC(=O)NCc3ccc(F)cc3)nnc12	?	.	-1%	7%
CCC(OC(=O)c1nsc(Cl)c1Cl)C(=O)NC(C)(C)C (stereo unspecified)	-2.8%	3	0%	8%
CCc1ccccc1N(CC(=O)Nc1cccnc1)S(=O)(=O)c1ccccc1	4.3%	.	12%	-13%
O=C(Nn1c(O)c(C=C2N=c3ccccc3=N2)sc1=S)c1cccc(Cl)c1	-2.9%	2	-8%	-12%
CC(C)(C)SCCNS(=O)(=O)c1ccc(F)cc1	-2.6%	1	-4%	4%
CCCC(=O)Nc1ccc(C(=O)NCc2ccccc2Cl)cc1	3.1%	5	-19%	-13%
Cc1c(CN2CCCC(C)C2)c(O)n(CCO)c(=O)c1C#N (stereo unspecified)	-0.3%	-6	1%	-18%
Cc1nnc(SCC(=O)Nc2nnc(-c3ccccc3)o2)s1	-1.5%	.	.	30%
CCCC1CCC(=NNC(=O)CNc2ccc(OC)cc2)CC1 (stereo unspecified)	0.3%	1	-3%	-15%
CCOc1ccc(-c2nc(C#N)c(N3CCN(CC)CC3)o2)cc1	-0.9%	6	-7%	-3%
O=C(CCc1ccccc1)Nc1cccc(S(=O)(=O)N2CCOCC2)c1	4.2%	.	.	-1%
O=C(NC1CC(=O)N(c2ccc(F)cc2)C1)N1CCN(C(=O)c2ccco2)CC1 (stereo unspecified)	0.5%	.	.	13%
Clc1ncnc2scc(C3COc4ccccc4O3)c12 (stereo unspecified)	0.1%	5	10%	-1%
O=C1NC[C@@H](Cc2cccc3ccccc23)N(CC2CCCCC2)C1=O	-1.0%	2	-7%	11%
CCCc1cc(C(=O)N2CCN(c3ccccc3C)CC2)cs1	1.3%	-1	-5%	-4%
CC(=O)Oc1ccc(C(=O)Nc2ccccc2C(=O)N2CCCC2)cc1	3.0%	.	2%	2%
CCOC(=O)Cc1csc(SCC(=O)c2c(N)n(CC(C)C)c(=O)n(C)c2=O)n1	0.5%	3	12%	13%
O=C(NC(=S)Nc1cccc(NC(=O)c2ccc(Cl)cc2Cl)c1)c1cccs1	2.5%	-3	-2%	-9%
CC(=O)Nc1ccc(NC(=O)CSc2nnnn2C2CCCCC2)cc1	6.0%	.	.	?

Part of the list above, set out differently:
> CCOc1ccc(-c2nc(C#N)c(N3CCN(CC)CC3)o2)cc1
  Rango-impB inh: -0.9%; GLA inh pH 4.5: 6; miR-21 reporter: -7%; Rango dissoc inh: -3%
> O=C(CCc1ccccc1)Nc1cccc(S(=O)(=O)N2CCOCC2)c1
  Rango-impB inh: 4.2%; GLA inh pH 4.5: .; miR-21 reporter: .; Rango dissoc inh: -1%
> O=C(NC1CC(=O)N(c2ccc(F)cc2)C1)N1CCN(C(=O)c2ccco2)CC1 (stereo unspecified)
  Rango-impB inh: 0.5%; GLA inh pH 4.5: .; miR-21 reporter: .; Rango dissoc inh: 13%

(more compounds)
SMILES	Rango-impB inh	GLA inh pH 4.5	miR-21 reporter	Rango dissoc inh
O=C(CN1C(=O)c2ccccc2S1(=O)=O)N1CCc2ccccc2C1	1.2%	-5	9%	-6%
Cc1cc(C)c(-c2cc(C(F)(F)F)no2)c(=O)[nH]1	?	8	1%	-8%
CC(C)(C)c1ccc(C(=O)NCC(=O)OCC(=O)Nc2nc(-c3ccc(F)cc3)cs2)cc1	-6.5%	-16	-26%	9%
Cc1cccc(C(=O)Nc2ccc(Oc3cnccn3)cc2)c1	1.1%	.	-57%	13%
Cc1ccc2nc(NC(=O)c3ccc4c(c3)OCO4)sc2c1	-1.7%	1	-50%	-1%
CC(=O)c1c(C)[nH]c(C(=O)OCCOc2ccccc2)c1C	-4.1%	-2	25%	-2%
CSc1ccccc1NS(=O)(=O)c1cccc2nonc12	3.8%	.	-5%	4%
COc1ccc(Nc2nc(Nc3ccc(OC)cc3)nc(-n3[nH]c(=O)c(C)c3C)n2)cc1	-3.6%	-5	13%	-9%
COC(=O)c1ccc(-c2nc3ccccc3o2)cc1	.	-13	-39%	.
COc1ccc(F)cc1S(=O)(=O)N1CCC(C(N)=O)CC1	?	10	-6%	-2%
COc1ccc(OC)c(NC(=O)CSc2nnc(CNC(=O)c3ccco3)o2)c1	?	4	0%	13%
CCCS(=O)(=O)C(=C(Nc1ccccc1)Nc1ccccc1)S(=O)(=O)CCC	-5.0%	-1	-2%	-11%
CN(C)S(=O)(=O)c1cccc(C(=O)c2nccn2C)c1	2.4%	-9	-1%	0%
CC1CC(C)CN(C(=O)COC(=O)CCCN2C(=O)c3cccc4cccc(c34)C2=O)C1 (stereo unspecified)	-2.3%	.	-7%	-15%
COc1ccc(C2=NCCn3nc4cc([N+](=O)[O-])ccc4c32)cc1	?	.	.	-13%
COc1cc2c(cc1OC)CN(CC(=O)Nc1ccc(C)c(C)c1)CC2	-3.2%	.	3%	-12%
CCOc1ccc(C(=O)NC(=S)Nc2ccccc2N2CCOCC2)cc1Br	6.6%	2	-5%	7%
Cc1cccc(N2CCN(C(=O)Cc3ccc(-n4c(=O)[nH]c5ccsc5c4=O)cc3)CC2C)c1 (stereo unspecified)	-0.1%	3	-7%	25%
COc1ccc(C(=O)OCC(=O)NC2CCCC2)c(OC)c1	-0.3%	.	-22%	-18%
N=c1n(CC(=O)c2cccc([N+](=O)[O-])c2)c2ccccc2n1Cc1ccccc1	1.5%	3	-9%	-2%
COc1ccccc1N1CCN(/N=C/c2cc(Br)ccc2F)CC1	?	.	-33%	-2%
C=CCn1c(SCC(=O)NCc2ccccc2)nnc1-c1cc(Br)ccc1O	3.8%	4	18%	-19%
CCC(C)(C)NC(=O)Cc1ccc(Cl)cc1	0.6%	-1	-15%	-2%
O=C(Nc1ncc(Cc2cccc(Cl)c2)s1)C1=NCCN1	0.2%	10	-4%	19%
Cc1cc(C)c(C)c(S(=O)(=O)N2CCC(C(=O)Nc3ccccc3N3CCOCC3)CC2)c1C	0.5%	-13	-3%	-12%

(further entries)
SMILES	Rango-impB inh	GLA inh pH 4.5	miR-21 reporter	Rango dissoc inh
CCNS(=O)(=O)c1ccc(CCC(=O)Nc2cc(Cl)ccc2Oc2ccccc2)cc1	-4.5%	-10	13%	4%
O=C(Nc1ccc(Cl)cc1)Nc1cnccn1	0.4%	3	-21%	-12%
Cc1cccc(NC(=O)COC(=O)CC2CCCC2)c1C	-0.1%	.	.	-9%
O=C(CN1C(=O)C(=O)N(C2CCCC2)C1=O)Nc1ccc(OC(F)F)cc1	-0.8%	.	.	1%
O=C(NCC1CCCN(C(=O)c2cscn2)C1)c1ccccc1Cl (stereo unspecified)	-0.9%	-5	-15%	1%
CCOC(=O)Cn1c(S(=O)(=O)Cc2ccccc2Cl)nc(-c2ccccc2)c1-c1ccccc1	-0.5%	-20	22%	-14%
CC(C)(C)C(=O)[C@@H]1[C@@H]2C(=O)N(C3CCCCC3)C(=O)[C@@H]2[C@H]2c3ccccc3C=CN12	?	4	1%	1%
O=C(CSc1nnc(NC(=O)c2ccco2)s1)NC1CCCCC1	2.8%	4	-4%	0%
COc1ccc(CNC(=O)CN(C(=O)c2cc3sccc3n2C)C2CCCC2)cc1	4.9%	-11	-5%	9%
CCCCNc1c(-c2ccc(OC)c(Sc3ccc(OC)cc3)c2)nc2ccc(Cl)cn12	?	.	.	?
CCOc1ccc(-n2c(SCC(=O)Nc3ccc4c(c3)OCO4)nc3c(c2=O)SCC3)cc1	-0.2%	-1	-11%	-6%
CCN(CC)C(=O)CSc1nc(O)c(Cc2ccccc2)c(=O)n1-c1ccc(C)cc1	-6.3%	-1	-5%	-19%
CC(C)[C@H](NS(=O)(=O)c1ccccc1F)C(=O)NC1CCCCC1	-9.5%	.	.	8%
O=C(CN1C2CCC1CC(NC(=O)C1CC1)C2)NCc1ccccc1 (stereo unspecified)	2.5%	2	-3%	-7%
CC(C)Cc1nnc(NC(=O)CCC(=O)NCc2ccccc2Cl)s1	2.7%	.	-3%	0%
Cc1cc(C)n2cc(CSCC(=O)O)nc2n1	-1.0%	3	-8%	12%
OCC[C@@H]1C[C@H](O)[C@@H](O)[C@@]2(CCc3ccccc3O2)O1	-1.4%	.	0%	7%
CCc1ccccc1NC(=O)CN(C)C(=O)COC(=O)c1ccccc1Cl	-1.0%	.	.	16%
COc1ccc(/C=C(\C#N)C(=O)NCCc2ccccc2)cc1OCc1ccccc1	0.4%	-4	6%	7%
CCc1ccccc1NC(=O)Cc1ccc(-n2cccc2)cc1	1.6%	1	0%	2%
CCOC(=O)C1CCN(C(=O)c2cccc(S(=O)(=O)N(CC)c3ccccc3)c2)CC1	2.5%	.	.	2%
Cn1nc(C(=O)Nc2nnc(C3CC3)s2)c2ccccc2c1=O	1.6%	-2	-4%	-3%
CC(=O)Oc1ccc(N(C(C)=O)S(=O)(=O)c2ccc(C)cc2)c2ccccc12	4.0%	.	.	5%
CCSc1nc2nn(-c3ccccc3)c(=O)c-2c2n1CCCCC2	-0.8%	3	0%	9%
Cc1cc(C)c(NS(=O)(=O)c2ccc(NC(=O)c3cccs3)cc2)c(C)c1	0.7%	0	12%	2%

(more compounds)
SMILES	Rango-impB inh	GLA inh pH 4.5	miR-21 reporter	Rango dissoc inh
c1ccc(OCc2nc3ccccc3[nH]2)cc1	-3.0%	13	-47%	14%
CCOC(=O)Cc1csc(NC(=O)Cc2ccc([N+](=O)[O-])cc2)n1	5.2%	-3	-10%	1%
CCOC(=O)C1CCCN(C(=O)c2cn(CC)c(=O)c3cc(OC)c(OC)cc23)C1 (stereo unspecified)	-2.2%	-2	-10%	-13%
C/C(=N\O)c1c(O)cc(-c2ccccc2)n(-c2ccccc2)c1=O	-0.9%	-5	1%	4%
COc1ccc(OCC(=O)N2CCN(S(=O)(=O)c3ccccc3[N+](=O)[O-])CC2)cc1	0.0%	-3	-2%	-13%
COc1ccc(NC(=O)c2c(F)cccc2F)cc1S(=O)(=O)Nc1ccc(Br)cc1	-4.6%	0	14%	-3%
Cc1cc(C(=O)NCC(=O)OC(C)C(=O)N2CCOCC2)ccc1[N+](=O)[O-] (stereo unspecified)	-0.5%	.	.	1%
Clc1ccc(C(c2nnnn2C2CCCC2)N2CCSCC2)cc1 (stereo unspecified)	-0.4%	-5	-2%	1%
O=C(C1=C[C@H](c2coc3ccccc3c2=O)C[C@H](OCCCCO)O1)N1CCN(Cc2ccccc2)CC1	4.3%	2	-2%	-2%
Cc1cccc(NC(=O)c2ccc(Cn3cc(C(F)(F)F)ccc3=O)cc2)c1	-2.6%	3	7%	3%
O=C(O)C1CCC(Cn2c(SCc3cc(=O)n4cc(Br)ccc4n3)nc3ccsc3c2=O)CC1 (stereo unspecified)	1.1%	-7	-23%	0%
O=C(NC1CCCC1)C(c1ccc(Cl)cc1)N1CCc2ccccc21 (stereo unspecified)	-3.2%	2	1%	-18%
Cc1ccccc1NC(=O)CSc1nc2ccc(Nc3nc(N4CCOCC4)nc(N4CCOCC4)n3)cc2s1	-3.6%	.	-9%	0%
Cc1ccc(-c2nc3ccccc3[nH]2)cc1NC(=S)NC(=O)c1ccccc1Br	-0.2%	-8	-13%	2%

This is a subset, so the mix of outcomes need not match the whole.
